TRPML1 agonist: activates the human TRPML1 channel; AID 624414; TRPML1-expressing cells, Ca2+ dye fluorescence, FDSS; host cell line not named in the record; reference of the full effect not given here; hit rate 0.12% among 410,000; activation, % (test concentration not listed); Q9GZU1; in the data active = activation above about 50%; inconclusive = about 30% to 50%; inactive = below about 30%; further: 0% is about no effect; the text of the record puts the active cut at 80%
Target sequence (Q9GZU1 whole entry, looked up): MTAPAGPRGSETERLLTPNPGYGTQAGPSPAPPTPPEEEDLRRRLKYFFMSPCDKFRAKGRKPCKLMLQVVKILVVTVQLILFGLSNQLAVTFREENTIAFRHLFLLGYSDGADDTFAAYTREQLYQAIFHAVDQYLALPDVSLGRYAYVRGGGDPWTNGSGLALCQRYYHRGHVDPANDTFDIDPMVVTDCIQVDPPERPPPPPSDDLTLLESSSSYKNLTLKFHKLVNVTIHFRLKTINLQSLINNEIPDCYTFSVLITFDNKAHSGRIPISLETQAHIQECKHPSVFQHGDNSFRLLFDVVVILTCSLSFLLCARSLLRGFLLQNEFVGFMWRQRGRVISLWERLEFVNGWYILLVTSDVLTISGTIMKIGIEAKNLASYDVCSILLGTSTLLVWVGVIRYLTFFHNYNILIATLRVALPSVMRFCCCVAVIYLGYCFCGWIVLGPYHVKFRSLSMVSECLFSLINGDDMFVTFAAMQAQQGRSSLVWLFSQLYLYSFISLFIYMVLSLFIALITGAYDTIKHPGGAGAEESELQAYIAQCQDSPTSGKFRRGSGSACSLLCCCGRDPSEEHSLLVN
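Cells: TRPML1-DL, 1X Tet inducer, ~16 h at 37 degrees C/5% CO2. Dye: ABD Ca8 no-wash + quencher, 45-90 min RT. Read: 10 s baseline, compound add, 110 s agonist phase; 54-4 EC80 (4uM final), 110 s antagonist phase.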
ClpP mod: qHTS Assay for Activators of ClpP. AID 651965, 2013. purified B. subtilis ClpP, FRET peptide cleavage, 20 min. hit rate 1.9% among 340,000. ATP-dependent Clp protease proteolytic subunit (Bacillus subtilis (strain 168)), P80244. Potency, µM (top dose mostly 57.5 µM), for the others: at the top dose activity change, negative = active; active = well fitted falling curve with a large enough effect; inconclusive = small, poorly fitted or top-dose-only effect; inactive = no such curve, though single readings can be large or run the other way; further: potency means the concentration at half of the fitted maximal effect; the source files actives as falling curves though it sought activators and does not explain the sign; nearly all actives have a fitted effect of over 65% in size; many hits overshoot -100%
Target sequence (P80244 whole entry, looked up): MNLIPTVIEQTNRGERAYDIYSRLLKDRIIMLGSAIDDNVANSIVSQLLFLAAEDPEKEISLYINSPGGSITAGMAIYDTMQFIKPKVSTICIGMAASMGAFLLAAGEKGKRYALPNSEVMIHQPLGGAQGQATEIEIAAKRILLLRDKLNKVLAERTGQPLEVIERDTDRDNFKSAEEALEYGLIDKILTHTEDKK
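Purified B. subtilis ClpP, 10 microg/mL final in Tris/HCl pH8 with KCl, BSA, glycerol and Tween-20, cleaved an Abz/nitrotyrosine-quenched decapeptide. Fluorescence (ex 320, em 430) was read at 0 and 20 min at room temperature. Delta was normalized to 5.8 microM ADEP and DMSO/no-enzyme controls.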
gsp antagonist: antagonists of gsp mutant (McCune-Albright syndrome). hit rate 0.4% among 340,000. AID 624288. gsp-mutant cells, cAMP HTRF, 30 min; control for the full effect not named in the record. Potency, µM (doses to about 76.9 µM), inactives show at the highest dose activity change, negative = inhibition, usual class: inhibitors; active = falling curve of any shape with a large fitted effect; inconclusive = falling curve, mostly with a smaller effect; inactive = flat or rising curve; cell line not stated here;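 further: intracellular cAMP measured with PDE inhibitor Ro 20-1724 present during compound exposure; potency means the concentration at half of the fitted maximal effect; on the % scale 0 is the no-effect control and ±100 the full control effect; nearly all actives have a fitted effect of over 65% in size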
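HTRF cAMP read-out (cAMP-d2 plus anti-cAMP antibody-K in lysis buffer, 30 min RT). Before lysis, cells are exposed to compounds with […] for 30 min at 37C in DPBS containing Ca/Mg, BSA and Tween 20.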
TRPML1 inh: inhibitors of human TRPML1 channel; Q9GZU1; TRPML1-inducible cells, Ca2+ dye fluorescence, FDSS; active compounds read low; inhibition of EC80 agonist-evoked calcium signal; activity change, negative = inhibition, % (concentration not given with the values); hit rate 0.02% among 390,000; AID 624415; in the data active means activity change below about -50%; inconclusive means about -30% to -50%; inactive means above about -30%;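 further: stimulus is agonist 54-4 at its EC80 concentration; on the % scale 0 is the no-effect control and ±100 the full control effect; the text of the record puts the active cut at -80%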
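TRPML1-DL cells, Tet-induced overnight (~16 h, 37 °C) at 1,500 cells/well, were loaded with Ca8 no-wash dye plus quencher for 45-90 min at room temperature. Compounds were pinned during FDSS kinetic reading; agonist 54-4 at EC80 (4 uM final) then added.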
gsp ag: activates gsp, the McCune-Albright syndrome mutation | gsp mutant cells, cAMP HTRF, 30 min; control for the full effect not named in the record | Potency, µM (top dose mostly 76.9 µM), inactives show at the top dose activation (cAMP increase), actives largely listed as activators | hit rate 0.13% among 340,000; active = well fitted activation curve with a large enough effect; inconclusive = small, poorly fitted or top-dose-only effect, or another doubt; inactive = no such curve, though single readings can be large or run the other way; cell line not stated here;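 further: phosphodiesterase inhibitor Ro 20-1724 added with compounds to block cAMP breakdown; potency means the concentration at half of the fitted maximal effect; nearly all actives have a fitted effect of over 60% in size; about a fifth of the inactives were tested at one dose only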
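Cells in DMEM/10% FBS with G418 were pretreated with compounds in DMSO plus […] (300 uM stock) for 30 min at 37C. cAMP was measured by HTRF (cAMP-d2 plus anti-cAMP antibody-K) after 30 min at room temperature.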
Menin MLL FP FL: inhibitors of human menin-MLL interaction, wild-type MLL peptide; Fluorescence polarization, fluorescein-MLL peptide displacement from menin; FP activity change, % at 61.4 µM; 290,000 tested, under 10 active; AID 1766; inconclusive = falling polarisation curve, or a change in total fluorescence; inactive = total fluorescence flat and polarisation flat or rising; no compound was filed as active; the % refers to the polarisation; negative = inhibition;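 further: % of control where 0% means no effect; inhibitors lower the polarisation; unlabelled MLL peptide was the positive control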
An asterisk follows results filed as active; u = inconclusive; x = not tested or not shown; [ ] = another dose, or the depositor's remark.

SMILES	TRPML1 agonist	ClpP mod	gsp antagonist	TRPML1 inh	gsp ag	Menin MLL FP FL
C/C(=N/N=C(/N)SCc1ccccc1)C(C)(C)C	-1.4	0.3%	18%	1	0%[15.4 µM]	1.5
CC1CC(C)CN(c2nc3c(c(=O)n(C)c(=O)n3C)n2C)C1 (stereo unspecified)	-0.2	-0.6%	-8%	2	-7%	0.1
Cc1ccc(-c2ccc(CN3C(C(C)C)C(=O)N(Cc4cn(CCC5OCCO5)nn4)CCS3(=O)=O)cc2)cc1 (stereo unspecified)	0.9	-0.4%	x	8	-38%[inhibitor]	x
Cc1ccc(S(=O)(=O)N2CCCC(C(=O)NCc3ccco3)C2)cc1Cl (stereo unspecified)	0.5	0.0%	-4%	35	-2%	2.8
N#Cc1cccc(C(=O)Nc2cc(S(=O)(=O)N3CCOCC3)ccc2N2CCCC2)c1	-0.7	x	-3%	-5	-32%[inhibitor]	x
CC1(C(=O)NC2CCCC2)CCC(=O)N1Cc1ccccc1Cl (stereo unspecified)	0.0	0.8%	19%	-13	-16%	-1.3
CCOC(=O)c1ccc(N(C(=O)c2cnccn2)C(C(=O)NC2CCCCC2)c2cn(C)nc2C)cc1 (stereo unspecified)	0.8	-1.0%	6%	57	39%	-2.7
COc1ccc(C2C(Oc3ccccc3C)C(=O)N2Cc2ccc(F)cc2)cc1OC (stereo unspecified)	1.1	14%	3%	17	16%	-1.4
CCC1=NN(C(=O)c2ccccc2O)C(O)(c2ccccc2)C1 (stereo unspecified)	4.4	0.4%	-9%	0	-22%	12
CCOC(=O)Cc1nn2c(=O)cc(C)nc2s1	0.4	-4.3%	-4%	-11	49%	u
CC1CCCCC1NC(=O)C1Cc2ccccc2CN1S(C)(=O)=O (stereo unspecified)	-0.5	-2.0%	0%	-3	0%	-2.1
CC1CN(C2CCN(C(=O)c3cccc(Cl)c3)CC2)CC(C)O1 (stereo unspecified)	-0.3	0.2%	13%	-17	13%	-0.6
Cc1ccc(NC(=O)Cc2ccc(Cl)cc2)nc1	-0.7	0.2%	-7%	-5	4%[15.4 µM]	x
Cc1ccc(NC(=O)CSc2nnc(C)c(=O)n2N)cc1Cl	1.3	-0.4%	3%	3	19%	x
COc1ccc(Br)cc1CN(C)C(=O)c1ccccc1SCC(=O)N1CCCC1	3.1	x	-12%	29	5%[15.4 µM]	x
COc1ccc(-c2nn(-c3ccccc3)cc2C(=O)Nc2nccs2)cc1OC	-0.8	-14%	9%	19	5%	4.1
COc1ccc(-n2c(SCC(=O)NNC(=O)c3ccc(C)cc3)nnc2-c2ccncc2)cc1	-0.2	0.5%	-12%	27	-1%	3.0
COc1ccc(Cc2nnc(NS(=O)(=O)c3ccc(NC(C)=O)cc3)s2)cc1	-0.3	x	7%	-15	0%[15.4 µM]	1.6
Cn1cnnc1SCC(=O)Nc1ccccc1	-0.3	0.0%	4%	-2	19%	4.3
CCN(CC)c1nc(Nc2ccccc2)nc(Oc2ccc(C(=O)OC)cc2)n1	1.0	-1.0%	-7%	-5	11%	-2.5
OC1CNc2c(ccc3ccccc23)C1 (stereo unspecified)	0.3	x	-28%	-23	-49%[inhibitor]	x
CC(C)(C)C(=O)Nc1cccc2[nH]ncc12	0.8	-2.7%	9%	-2	-1%[15.4 µM]	-0.1
COc1ccccc1CNC(=O)COC(=O)c1ccc([N+](=O)[O-])o1	1.2	-3.6%	-7%	2	3%	x
COC(=O)c1cc(C(=O)OC)cc(-n2c(C)cc(C(=O)CC#N)c2C)c1	0.9	3.4%	-22%	14	-61%[inhibitor]	1.5

The final two compounds of the section above come first, to join the parts:
SMILES	TRPML1 agonist	ClpP mod	gsp antagonist	TRPML1 inh	gsp ag	Menin MLL FP FL
COc1ccccc1CNC(=O)COC(=O)c1ccc([N+](=O)[O-])o1	1.2	-3.6%	-7%	2	3%	x
COC(=O)c1cc(C(=O)OC)cc(-n2c(C)cc(C(=O)CC#N)c2C)c1	0.9	3.4%	-22%	14	-61%[inhibitor]	1.5
CCOCCCNC(=O)c1ccccc1NC(=O)C1=C(C)OCCS1	0.3	-3.3%	-14%	-15	-21%	12
CN(Cc1ccc(F)cc1)C(=O)c1ccc2c(c1)NC(=O)CS2	3.8	-3.6%	10%	-10	-22%	2.3
Cc1ccc(S(=O)(=O)N2CCCC2)cc1C(=O)NC1CCCCC1	-0.2	-2.2%	0%	-12	-32%[inhibitor]	1.7
Cc1ccc(NNC(=O)c2snnc2C)cc1Cl	0.0	x	5%	0	-15%[15.4 µM]	2.0
COc1ccc(-c2cc(N3C(=O)Nc4ccccc4N3O)n[nH]2)cc1	-0.6	-1.5%	17%	11	1%	6.1
C(=N\n1cnnc1)/c1cccs1	-0.4	0.6%	-5%	-7	-2%	0.3
COC(CNC(=O)c1ccc(Cn2c(=S)[nH]c3cc4c(cc3c2=O)OCO4)cc1)OC	0.3	0.9%	-9%	4	-9%	1.2
O=C(OC1CCCCC1=O)c1ccc(S(=O)(=O)Nc2ccccc2)cc1 (stereo unspecified)	0.2	1.6%	1%	10	11%	0.7
CCOc1ccc(NC(=O)CN2CCN(CC(=O)Nc3ccc(N(CC)CC)cc3)CC2)cc1	0.6	-0.4%	x	33	x	x
CC(=O)Nc1ccc(S(=O)(=O)NNC(=O)c2ccc3c(c2)OCO3)cc1	-0.1	1.7%	6%	-1	3%[15.4 µM]	x
C=CC[C@@H](Cc1ccc(F)cc1)C(=O)OC[C@@H]1CCCN1C(=O)[C@H](CC=C)CC(=O)N(CCO)Cc1ccccc1	-0.1	1.8%	u	-1	-15%	x
COc1ccc(C2Nc3ccccc3C(=O)N2Cc2ccccc2)cc1CSc1ccccn1 (stereo unspecified)	-0.2	14µM*	-12%	-4	18%	1.1
Cc1ccc(SCCSc2nc(N)cc(=O)[nH]2)cc1	0.2	0.7%	-1%	21	-23%	3.7
CCN(CC(=O)Nc1c(F)cccc1F)C(=O)c1cc(-c2cccs2)nn1-c1ccccc1	2.7	-1.7%	-10%	0	8%[15.4 µM]	x
CC(C)[C@H](NC(=O)c1ccccc1)C(=O)N1CCc2ccccc21	-0.6	x	-2%	-2	6%	1.1
O=C(O)CNC(=S)N(Cc1ccco1)Cc1ccccc1Cl	-0.2	-0.3%	0%	0	-36%	-2.2
CC(=O)Nc1cccc(NS(=O)(=O)c2cc3c4c(c2)CCN4C(=O)CC3)c1	0.0	-2.2%	19%	27	u	x
O=C(O)c1cc(-c2ccc(Cl)s2)[nH]n1	-0.3	x	4%	22	-9%[15.4 µM]	0.9
Cc1cccc2c1cnn2C(=O)Nc1cc(F)ccc1F	2.3	-5.8%	7%	28	-20%	4.3
Cc1ccc(S(=O)(=O)N2C[C@H]3[C@H]4C(=O)N(Cc5ccccc5)C(=O)[C@H]4CC(=O)[C@H]3[C@@H]2c2cccc3ccccc23)cc1	0.4	-2.5%	x	5	x	x
Cc1nnc(SCC(=O)Nc2cccc(S(=O)(=O)N(C)c3ccccc3)c2)s1	-0.4	1.2%	-35%	-7	5%	4.7
COc1ccc(OC)c(C=Nc2ccccc2-c2nc3ccccc3[nH]2)c1	3.0	27%	-7%	4	7%	3.7
Cc1cccc(N(C)S(=O)(=O)c2nnc(NC(=O)C(C)(C)C)s2)c1	4.1	-1.0%	x	-1	x	x
Nc1cc(C(=O)OCC(=O)NCCCc2ccccc2)ccc1Cl	-0.5	-1.7%	6%	-6	-18%[15.4 µM]	4.6
CNC(=O)COc1coc(CN2CCN(c3ccc(OC)cc3)CC2)cc1=O	-0.2	0.6%	3%	-2	18%	x
CC1=NN(c2ccccc2)C(=O)/C1=C\c1cc(C)n(-c2ccccc2)c1C	-0.7	1.2%	12%	-29	8%	5.8
CCC(C)[C@H](NC(=O)[C@@H]1Cc2c([nH]c3ccccc23)C2c3ccccc3C(=O)N21)C(=O)NCC1CCCO1 (stereo partly specified)	x	-17%	-15%	x	x	3.3
COc1ccccc1CC(=O)Nc1cccc(S(=O)(=O)N2CCOCC2)c1	-0.4	-1.4%	8%	-3	-25%	x
CC12CCC(=O)C=C1CCC1C2C(O)CC2(C)C(c3csc(N)n3)CCC12 (stereo unspecified)	1.8	x	-18%	-7	0%	x
Cc1oc2ccc(O)c(CN3CCCC3)c2c1C(=O)Nc1cccc(Cl)c1C	-0.7	1.1%	x	35	x	x
CC(Oc1ccc(Cl)cc1Cl)c1ccn[nH]1 (stereo unspecified)	-0.2	x	-15%	8	-14%[15.4 µM]	2.4
COC(=O)C1CC(c2ccccc2)N(c2ccccc2)O1 (stereo unspecified)	-0.3	-1.0%	x	-8	-42%[inhibitor]	x
C[C@H](CO)N1C[C@H](C)[C@@H](CN(C)S(=O)(=O)c2ccc(F)cc2)Oc2ccc(NC(=O)Nc3ccccc3)cc2C1=O	-0.4	0.4%	-7%	-6	x	x
CCN(C(=O)COC(=O)c1ccc(O)cc1)c1cccc2ccccc12	1.8	1.6%	-7%	-5	24%[15.4 µM]	x
Cc1ccc(Oc2cc(C#N)c(C#N)cc2-n2nnc3ccccc32)cc1C	-0.9	3.2%	3%	-3	0%	5.3
CCCn1c(NC(=O)CCS(=O)(=O)c2ccc(C)cc2)nc2ccccc21	0.1	-13%	-8%	-5	-47%[inhibitor]	x
O=C(CSc1nc2ccccc2c(=O)n1Cc1ccc(F)cc1)NCC1CCCO1 (stereo unspecified)	0.1	4.1%	-13%	3	-36%[inhibitor]	x
CC(C)OC(=O)c1c(NC(=O)C2c3ccccc3Oc3ccccc32)sc2c1CCCC2	0.9	u	x	-8	x	x
Cc1cc(Cl)ccc1OC(C)C(=O)N1CCCN(C(=O)C(C)Oc2ccc(Cl)cc2C)CC1 (stereo unspecified)	-0.9	1.9%	u	-3	-3%	0.7
CCCOC(=O)/C=C/c1c(C)[nH]c(=O)[nH]c1=O	-0.6	2.6%	5%	4	8%	3.8
COc1ccc(-c2cc(C(F)(F)F)nc(SCCC(=O)N3CCN4CCCC4C3)n2)cc1 (stereo unspecified)	-0.4	-20%	-1%	5	6%	2.9
COCCNC(=O)Nc1ccc2nc(-c3cccs3)c(-c3cccs3)nc2c1	3.5	-18%	-22%	-1	u	-1.0
CCO/N=C(/C)c1c(O)cc(C(C)(C)C)n(-c2ccccc2)c1=O	1.0	-0.6%	9%	-13	1%	x
COc1ccccc1C(CNC(=S)NCc1ccccc1)N1CCCC1 (stereo unspecified)	0.9	x	4%	1	2%	2.9
COc1cccc(N2CC(C)Cn3c2nc2c3c(=O)[nH]c(=O)n2C)c1 (stereo unspecified)	0.9	x	0%	26	u	-1.6

Screening results (PubChem BioAssay)

Rows were taken by chance; any-hit rate near 2.1%.
